KCNK3 inh: human KCNK3 channel inhibitors, primary screen, CHO cells, FluxOR thallium flux, B-score | Potassium channel subfamily K member 3 (Homo sapiens), O14649 | FluxOR fluorescence; stronger effect = lower value | B-score at 10 µM | 0.84% of 340,000 active | AID 602410, 2012;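 active means B-score under library mean minus 4 SD, starting fluorescence ratio at most library mean plus 5 SD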;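 further: more negative B-score means stronger inhibition of thallium flux through KCNK3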
Target sequence (O14649 whole entry, looked up): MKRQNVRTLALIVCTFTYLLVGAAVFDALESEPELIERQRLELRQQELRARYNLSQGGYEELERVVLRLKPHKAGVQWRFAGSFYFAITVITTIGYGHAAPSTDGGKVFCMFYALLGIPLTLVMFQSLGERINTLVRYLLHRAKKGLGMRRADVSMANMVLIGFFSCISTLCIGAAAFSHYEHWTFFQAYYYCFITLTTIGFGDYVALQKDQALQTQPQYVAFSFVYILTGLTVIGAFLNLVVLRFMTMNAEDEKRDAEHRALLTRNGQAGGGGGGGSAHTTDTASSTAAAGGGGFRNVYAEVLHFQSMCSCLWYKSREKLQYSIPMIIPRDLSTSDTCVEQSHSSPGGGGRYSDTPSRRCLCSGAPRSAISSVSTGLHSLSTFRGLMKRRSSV
hERG rescue: hERG rescue from dofetilide block, primary screen, cell-based, CHO-hERG, FluxOR thallium flux, dofetilide IC70; dofetilide IC70 present; activation (rescue from dofetilide block), less the hit threshold, % at 10 µM; 0.51% of 310,000 active; AID 1511, 2009;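 active means activation above the mean of controls blocked by dofetilide plus 5 SD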;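 further: thallium influx through hERG after potassium depolarization seen as dye fluorescence rise; in these data hits start at about 4.7%; inactives centre near -7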
ANO1 activ: TMEM16A chloride channel activators or potentiators, primary screen, cell-based, HTS; Anoctamin-1 (Mus musculus), Q8BHY3; HEK293 TMEM16A/YFP-H148Q/I152L, iodide quench fluorescence; stronger effect = lower value; B-score at 10 µM; 0.3% of 340,000 active; AID 623877, 2012;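 active means fluorescence-ratio B-score plate-corrected deviation score at least 3 library SD below zero, with starting fluorescence score within 5 deviations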;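 further: channel opened by trigger with iodide after compound preincubation; score built on the fluorescence ratio of max minus min over baseline; more negative score means more quench and so TMEM16A activation or potentiation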
RGS4 inh: RGS4 inhibitors, primary screen, cell-based, HEK293 M3R inducible RGS4, calcium flux; 0.45% of 310,000 active; Regulator of G-protein signaling 4 (Homo sapiens), P49798; B-score at 10 µM; Fluo-4 calcium flux; stronger effect = higher value; triggered by carbachol at its EC20; AID 463165, 2010;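 active means B-score, a plate-corrected calcium signal, over three deviations above library mean, with baseline fluorescence within five deviations of library mean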;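 further: RGS4 expression induced by doxycycline in cells with stable M3 receptor; B-score is computed from the integrated fluorescence ratio over baseline after carbachol; higher B-score means a larger calcium signal and so more RGS4 inhibition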
Target sequence (P49798 whole entry, looked up): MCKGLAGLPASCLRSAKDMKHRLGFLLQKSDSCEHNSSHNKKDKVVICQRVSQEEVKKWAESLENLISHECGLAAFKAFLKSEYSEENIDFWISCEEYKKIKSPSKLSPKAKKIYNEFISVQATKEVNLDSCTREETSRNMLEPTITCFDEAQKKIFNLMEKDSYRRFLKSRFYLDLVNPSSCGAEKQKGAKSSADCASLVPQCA
KCNQ1 act: potentiators or activators of KCNQ1 channel, primary screen, cell-based, thallium flux, high-throughput | 0.35% of 310,000 active | B-score at 10 µM | Potassium voltage-gated channel subfamily KQT member 1 (Homo sapiens), P51787 | AID 2648, 2010 | CHO-K1 KCNQ1, thallium flux FluxOR fluorescence; stronger effect = higher value;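 active means fluorescence ratio B-score, a plate-corrected score, at least three library SD, with initial intensity B-score within 5 SD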
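Material: CHO-K1 cells stably expressing KCNQ1. Medium: assay buffer for compound exposure, DMSO matched across wells. Reagent: K+/Tl+ depolarizing stimulus. Compound dosing: single-concentration screen. Times: 37 °C overnight plating, 90-min dark dye load, 20-min compound pretreatment. Technique: FluxOR Tl+ flux fluorescence.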
RGS4 act: RGS4 potentiators or activators, primary screen, cell-based, HEK293 M3R inducible RGS4, calcium flux. 0.92% of 310,000 active. AID 463111, 2010. carbachol calcium flux Fluo4; stronger effect = lower value. B-score at 10 µM;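 active means B-score of the integrated calcium signal more than 4 SD below the library mean, with starting fluorescence not abnormally high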;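 further: negative B-score means reduced calcium response which marks RGS4 activation or potentiation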
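Assay system: HEK293 FlpIn-TREx cells, stable M3R, doxycycline-inducible RGS4 / Probe or stimulus: carbachol, ECmax concentration / Times: overnight RGS4 induction, 30 min dye load 37 °C, 20 min compound RT / Signal: kinetic calcium fluorescence imaging with Fluo4-AM dye, 2 µM / Measure: Agonist-evoked peak-minus-minimum fluorescence over baseline, integrated ratio, B score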
KCNQ1 block: inhibitors of human KCNQ1 channel, primary screen, cell-based, thallium flux, high-throughput | Potassium voltage-gated channel subfamily KQT member 1 (Homo sapiens), P51787 | 1.3% of 310,000 active | B-score at 10 µM | CHO-K1 KCNQ1, FluxOR thallium flux fluorescence; stronger effect = higher value;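 active means compounds whose thallium flux B-score, printed positive for inhibition, exceeds three library SD while starting fluorescence stays within three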;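 further: channel opened by potassium depolarization with thallium stimulus after 20 min compound exposure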
TMEM16A inh: TMEM16A chloride channel inhibitors, primary screen, cell-based, HTS. Anoctamin-1 (Mus musculus), Q8BHY3. normalized B-score (activity score, 25-100; higher = stronger inhibition) at 10 µM. 1.2% of 310,000 active. HEK293 TMEM16A/YFP iodide influx fluorescence, ionomycin;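 active means ratio plate-corrected score three or more library SD toward inhibition, starting fluorescence score within five deviations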;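 further: score derived from kinetic fluorescence span divided by baseline fluorescence per well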
HDAC3 inhib: HDAC3 deacetylase inhibitors, primary screen, biochemical, fluorescence, cell-free homogeneous; inhibition, % at 8.3 µM; 0.15% of 320,000 active; AID 2718, 2010; recombinant HDAC3, fluorogenic peptide/trypsin coupled; in the data active means inhibition above about 26%, passing the limit was not always enough; inconclusive means no clear call, values can overlap the other calls
Target sequence (O15379 whole entry, looked up): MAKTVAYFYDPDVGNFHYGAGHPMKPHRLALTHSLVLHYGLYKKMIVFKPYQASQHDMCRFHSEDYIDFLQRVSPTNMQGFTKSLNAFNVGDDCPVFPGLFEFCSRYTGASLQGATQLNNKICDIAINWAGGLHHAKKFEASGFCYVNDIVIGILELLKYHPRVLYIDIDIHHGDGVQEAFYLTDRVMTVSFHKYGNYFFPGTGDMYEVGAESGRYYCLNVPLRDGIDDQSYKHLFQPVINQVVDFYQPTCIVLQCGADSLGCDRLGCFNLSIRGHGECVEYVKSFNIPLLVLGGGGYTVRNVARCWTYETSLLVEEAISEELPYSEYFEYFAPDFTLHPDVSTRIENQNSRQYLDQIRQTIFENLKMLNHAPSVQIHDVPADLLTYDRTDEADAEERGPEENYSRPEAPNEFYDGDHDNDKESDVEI
SKKanGAS inh: S. pyogenes SKKanGAS growth inhibitors in kanamycin, primary screen, streptokinase expression inhibitor project, SKKanGAS strain, BacTiter-Glo luminescence; 6 h; inhibition, % at 7.5 µM; 1.3% of 300,000 active; AID 1662, 2009;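 active means mean replicate score, as percent of positive control median, at least 50; inconclusive means mean below 50 but one replicate at or above 50; inactive means mean and every replicate below 50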;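 further: strain carries kanamycin resistance gene driven by streptokinase promoter and grows in 40 µg/ml kanamycin; loss of luminescence reflects streptokinase promoter inhibition or plain growth inhibition; 0% = median of DMSO wells and 100% = positive control at its reference dose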
Active calls of the source: *; i = inactive; u = inconclusive; x = no result given.

1: CCOC(=O)N/N=C/c1cn(Cc2ccccc2Cl)c2ccccc12
2: CCCCN1C2CCCC1CC(NC(=O)C1CCCCC1)C2 (centres undefined)
3: COc1cccc(-c2nc(CS(=O)(=O)CC(=O)N3CCc4ccccc4C3)c(C)o2)c1
4: CCN(Cc1ccccc1)C(c1ccc(C(F)(F)F)cc1)c1nnnn1C(C)(C)C (centres undefined)
5: C/C(=C\c1ccccc1)CN1CCN(c2cccc(Cl)c2)CC1
6: N#CC1(Cc2ccc(Cl)cc2)c2ccccc2C=CN1C(=O)c1ccccc1 (centres undefined)
7: CC(C)NC(=S)Nc1ccc(Oc2ccccc2)cc1
8: Cc1cc(C)n(S(=O)(=O)c2cc(C)c(C)cc2C)n1
9: Cc1ccc(CSCC(=O)N2CCN(Cc3ccc4c(c3)OCO4)CC2)cc1
10: Cc1ccc(CNc2oc(-c3ccco3)nc2S(=O)(=O)c2ccccc2)cc1

assay / compound | 1 | 2 | 3 | 4 | 5 | 6 | 7 | 8 | 9 | 10
KCNK3 inh | i | i | i | i | i | i | i | i | i | i
hERG rescue | -11.9 | -10.0 | -7.0 | -12.6 | -12.8 | -10.8 | -6.6 | -11.7 | -5.9 | -13.4
ANO1 activ | i | i | i | i | i | i | i | i | i | i
RGS4 inh | i | i | i | i | i | i | i | i | i | i
KCNQ1 act | i | i | i | i | i | i | i | i | i | i
RGS4 act | i | i | i | i | i | i | i | i | i | i
KCNQ1 block | i | i | i | i | i | i | i | i | i | i
TMEM16A inh | i | i | i | i | i | 25* | i | i | i | i
HDAC3 inhib | 0.3 | x | 3.2 | 11.3 | 10.2 | -5.9 | -2.3 | -0.5 | 1.7 | 7.3
SKKanGAS inh | 6.4 | -3.4 | -5.1 | 11.8 | -0.4 | 42.6 | -8.5 | 18.2 | -2.7 | 2.0

Results in KCNQ1 block, RGS4 act and TMEM16A inh (two entries from above):
| entry | Compound | KCNQ1 block | RGS4 act | TMEM16A inh |
| --- | --- | --- | --- | --- |
| 8 | Cc1cc(C)n(S(=O)(=O)c2cc(C)c(C)cc2C)n1 | i | i | i |
| 7 | CC(C)NC(=S)Nc1ccc(Oc2ccccc2)cc1 | i | i | i |

Further entries follow.
11: Cc1cccc(C(=O)O/N=C2\CCSc3ccc(C)cc32)c1
12: CC1CCN(c2nc3nonc3nc2N2CCC(C)CC2)CC1
13: CCOC(=O)[C@@H]1[C@H]2COc3ccc(Br)cc3[C@H]2N2C(=O)N(c3ccc(F)cc3)C(=O)[C@@]12C
14: O=C1CC[C@@H](OCc2ccccc2)CCN1CC[C@H](Sc1ccccc1)c1ccccc1
15: CC(C)(C)c1ccc(NC(=O)c2ccccc2)c([N+](=O)[O-])c1
16: O=C(Nc1cccc(F)c1)C1CCN(C(=O)c2ccc(Cl)cc2)CC1
17: O=C(CSc1cc(Cl)ccc1Cl)NC1CCCc2ccccc21 (centres undefined)
18: CC1=NN(C(N)=S)C(=O)C1N=Nc1c(Br)cc(Br)cc1Br (centres undefined)
19: O=C(Nc1cccc(-c2cn3ccccc3n2)c1)c1cccc(Cl)c1
20: COc1ccccc1C(=O)C1CCCN(C(=O)CCC(=O)c2ccccc2)C1 (centres undefined)

assay / compound | 11 | 12 | 13 | 14 | 15 | 16 | 17 | 18 | 19 | 20
KCNK3 inh | i | i | i | i | i | i | i | i | i | i
hERG rescue | -7.3 | -6.3 | -5.8 | -10.9 | -2.3 | -6.2 | -5.9 | -6.3 | -11.8 | -14.4
ANO1 activ | i | i | i | i | i | i | i | i | i | i
RGS4 inh | i | i | i | i | i | i | i | i | i | i
KCNQ1 act | i | i | i | i | i | i | i | i | i | i
RGS4 act | i | i | i | i | i | i | i | i | i | i
KCNQ1 block | i | i | i | i | i | i | i | i | i | i
TMEM16A inh | i | i | i | i | i | i | i | 100* | i | i
HDAC3 inhib | -1.7 | 13.9 | 1.6 | 8.1 | 5.7 | 8.4 | -3.8 | 14.6 | -8.7 | u
SKKanGAS inh | -0.9 | 0.0 | 17.3 | 18.2 | -9.4 | 2.5 | -11.2 | 66.3* | 1.3 | -7.9

Quoted from the listing.
Result for CC(C)(C)c1ccc(NC(=O)c2ccccc2)c([N+](=O)[O-])c1 under SKKanGAS inh: -9.4
Result for Cc1cccc(C(=O)O/N=C2\CCSc3ccc(C)cc32)c1 under SKKanGAS inh: -0.9
Result for O=C1CC[C@@H](OCc2ccccc2)CCN1CC[C@H](Sc1ccccc1)c1ccccc1 under HDAC3 inhib: 8.1
Result for O=C(Nc1cccc(F)c1)C1CCN(C(=O)c2ccc(Cl)cc2)CC1 under HDAC3 inhib: 8.4

Part of the list above in order of molecular weight, high to low.
13: CCOC(=O)[C@@H]1[C@H]2COc3ccc(Br)cc3[C@H]2N2C(=O)N(c3ccc(F)cc3)C(=O)[C@@]12C
14: O=C1CC[C@@H](OCc2ccccc2)CCN1CC[C@H](Sc1ccccc1)c1ccccc1
20: COc1ccccc1C(=O)C1CCCN(C(=O)CCC(=O)c2ccccc2)C1 (centres undefined)
19: O=C(Nc1cccc(-c2cn3ccccc3n2)c1)c1cccc(Cl)c1
11: Cc1cccc(C(=O)O/N=C2\CCSc3ccc(C)cc32)c1
15: CC(C)(C)c1ccc(NC(=O)c2ccccc2)c([N+](=O)[O-])c1

assay / compound | 13 | 14 | 20 | 19 | 11 | 15
KCNK3 inh | i | i | i | i | i | i
hERG rescue | -5.8 | -10.9 | -14.4 | -11.8 | -7.3 | -2.3
ANO1 activ | i | i | i | i | i | i
RGS4 inh | i | i | i | i | i | i
KCNQ1 act | i | i | i | i | i | i
RGS4 act | i | i | i | i | i | i
KCNQ1 block | i | i | i | i | i | i
TMEM16A inh | i | i | i | i | i | i
HDAC3 inhib | 1.6 | 8.1 | u | -8.7 | -1.7 | 5.7
SKKanGAS inh | 17.3 | 18.2 | -7.9 | 1.3 | -0.9 | -9.4

The list goes on:
21: COc1cc(/C=C2\C(=N)N3N=C(S(C)(=O)=O)SC3=NC2=O)ccc1OS(=O)(=O)c1ccc(C)cc1
22: CCOc1ccc(N2C(=O)c3ccccc3C2O)cc1 (centres undefined)
23: CCN1CCSc2ccc(C(=O)NCc3ccc(OC(C)C)cc3)cc21
24: COc1ccccc1N1CCN(C2CCCN(Cc3cc(F)cc(F)c3)C2)CC1 (centres undefined)
25: CC(C)(C)c1ccc(SCCc2ccccn2)cc1
26: O=C(O)CCN1C(=O)/C(=C\c2cccc(Oc3ccccc3)c2)SC1=S
27: CCOC(=O)c1ccc(N2C(=O)c3n[nH]c(C)c3C2c2ccc(OC)cc2)cc1 (centres undefined)
28: COc1cccc(-c2cc(C(=O)N3CCc4ccccc4C3)no2)c1
29: O=[N+]([O-])c1ccc(NCCc2ccccc2)c(Br)c1
30: CCCCNC(=O)c1c(CSc2ccc(Cl)cc2)noc1C(=O)NCCC

assay / compound | 21 | 22 | 23 | 24 | 25 | 26 | 27 | 28 | 29 | 30
KCNK3 inh | i | i | i | i | i | i | i | i | i | i
hERG rescue | -25.0 | -5.4 | -12.0 | -7.7 | -1.9 | -4.7 | -7.8 | -5.8 | -10.2 | -14.0
ANO1 activ | i | i | i | i | i | i | i | i | i | i
RGS4 inh | i | i | i | i | i | i | i | i | i | i
KCNQ1 act | i | i | i | i | i | i | i | i | i | i
RGS4 act | i | i | i | i | i | i | i | i | i | i
KCNQ1 block | i | i | i | i | i | i | i | i | i | i
TMEM16A inh | i | i | i | i | i | i | i | i | i | i
HDAC3 inhib | 0.0 | 5.2 | -32.1 | -0.2 | 3.2 | 4.2 | 9.4 | -2.5 | 0.2 | 8.6
SKKanGAS inh | 36.6 | 1.1 | -4.3 | 6.7 | 11.8 | 10.8 | 5.6 | x | 24.6 | 14.7

31: Cc1ccc2nsnc2c1S(=O)(=O)N1CCN(CCc2ccccc2)CC1
32: Cc1cc(N2CCC(C)CC2)n2ncc(-c3ccccc3)c2n1
33: O=C(CSCc1cnn(-c2ccccc2)c1-n1cccc1)NCc1ccc2c(c1)OCO2
34: Cc1ccccc1C(=O)Oc1ccc(Br)cc1C(=S)N1CCCC1
35: Cc1occc1C(=O)N/N=C/C(Br)=C/c1ccccc1
36: C=CCC1(C#N)C(SC)=NC2=C(C(=O)CC(C)(C)C2)C1c1ccc(Br)cc1 (centres undefined)
37: CCOC(=O)[C@@H]1[C@H]2COc3ccc(Br)cc3[C@@H]2N2C(=O)N(c3ccc(C)cc3)C(=O)[C@]12C

assay / compound | 31 | 32 | 33 | 34 | 35 | 36 | 37
KCNK3 inh | i | i | i | i | i | i | i
hERG rescue | -16.2 | -7.4 | -7.0 | -8.7 | -9.6 | -3.8 | -5.9
ANO1 activ | i | i | i | i | i | i | i
RGS4 inh | i | i | i | i | i | i | i
KCNQ1 act | i | i | i | i | i | i | i
RGS4 act | i | -7.34* | -7.31* | i | i | i | i
KCNQ1 block | i | i | i | i | i | i | i
TMEM16A inh | i | i | x | i | i | i | i
HDAC3 inhib | -2.0 | 6.1 | x | 6.4 | 1.7 | 2.4 | 7.9
SKKanGAS inh | -9.6 | -2.2 | 1.3 | 5.8 | 22.4 | 10.1 | 5.2

Screening data deposited in PubChem by several laboratories.

Some of the compounds tested. The share of hits here may be higher or lower than overall.
